Bioassay records (PubChem BioAssay)
2A StopGo: High Throughput Screening for Foot and Mouth Disease Virus Antivirals; human cells with a luciferase reporter of 2A StopGo recoding; control for the full effect not named in the record; 1.2% of 410,000 active; Potency, µM (highest dose often 57.9 µM), for the others: at the highest dose signal change, negative = less light; AID 1159524, 2015; active = well fitted falling curve with a large enough effect; inconclusive = small, poorly fitted or top-dose-only effect; inactive = no such curve, though single readings can be large or run the other way; tested in HEK293T cells; also: % is scaled to controls: 0 for no effect and ±100 for the full control effect; nearly all actives have a fitted effect of over 45% in size; luciferase light after 4 h
Cruzain inh Det: qHTS Assay for Promiscuous and Specific Inhibitors of Cruzain (with detergent); 0.43% of 200,000 active; Potency, µM, for the others: max response, negative = inhibition, actives largely listed as inhibitors; Cruzipain (Trypanosoma cruzi), P25779; purified cruzain, Z-FR-AMC fluorescence, 0.01% Triton;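 also: plate controls were neutral wells for no effect and buffer without enzyme for full effect; nearly all actives have a fitted effect of over 40% in size; top concentration of the series not given in the record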
Target sequence (P25779 123-467 limits assumed): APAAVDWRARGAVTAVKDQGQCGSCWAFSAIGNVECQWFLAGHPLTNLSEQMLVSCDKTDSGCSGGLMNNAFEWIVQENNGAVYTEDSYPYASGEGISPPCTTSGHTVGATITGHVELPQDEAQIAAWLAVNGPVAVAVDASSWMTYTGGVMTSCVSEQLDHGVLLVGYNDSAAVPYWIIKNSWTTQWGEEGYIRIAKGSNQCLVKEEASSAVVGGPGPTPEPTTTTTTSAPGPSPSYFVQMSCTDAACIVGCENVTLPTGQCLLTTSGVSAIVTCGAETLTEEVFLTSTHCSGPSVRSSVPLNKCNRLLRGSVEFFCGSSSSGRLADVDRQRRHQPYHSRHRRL
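Detergent-containing arm of a paired screen for aggregation-based inhibition: 0.01% Triton X-100 present. Cruzain at 1.5 nM cleaved 2 uM Z-FR-AMC at pH 5.5 with 5 mM DTT; AMC fluorescence gain over 60 s measured activity.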
Cruzain noTriton: qHTS Assay for Promiscuous and Specific Inhibitors of Cruzain (without detergent); 2.3% of 200,000 active; Cruzipain (Trypanosoma cruzi), P25779; AID 1476, 2009; purified cruzain, Z-FR-AMC fluorescence, no detergent; Potency, µM, inactives show max response, negative = inhibition, hits mostly inhibitors;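 also: plate controls were enzyme without inhibitor for no effect and buffer without enzyme for full effect; nearly all actives have a fitted effect of over 40% in size; top concentration of the series not given in the record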
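Purified cruzain at 1.5 nM, pre-incubated 15 min with compound at room temperature in 100 mM sodium acetate pH 5.5, 5 mM DTT, 0.00005% Triton X-100. Reaction started with 2 uM Z-FR-AMC; AMC fluorescence increase over 60 s gives rate.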
Marburg entry inh: qHTS for inhibitors of binding or entry into cells for Marburg Virus; Potency, µM (highest dose often 37.8 µM), for inactives: at the top dose activity change, negative = inhibition, most hits filed as inhibitors; 1.8% of 300,000 active; Marburg virus pseudotyped entry inhibition, cell reporter; control for the full effect not named in the record; about a third of the inactives were read at about 46 µM; active = well fitted inhibition curve with a large enough effect; inconclusive = small, poorly fitted or top-dose-only effect, or effect the other way; inactive = flat fitted curve, though single readings scatter; tested in HEK293 cells; about a fifth of its hits are not listed in these tables; also: % is scaled to controls: 0 for no effect and ±100 for the full control effect; luciferase read-out
NS1 function inh: qHTS Assay for Inhibitors of Influenza NS1 Protein Function | S. cerevisiae slowed by influenza A NS1, growth recovery by OD600 | Potency, µM (series often up to 46.1 µM), for the others: at the highest dose activity, positive = more growth | 0.4% of 270,000 active; active means well fitted rising curve with a large enough effect; inconclusive means small, poorly fitted or top-dose-only effect; inactive means no such curve, though single readings can be large or run the other way; also: nearly all actives have a fitted effect of over 50% in size
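Compounds were scored for reversing the slow growth caused by influenza A NS1 in S. cerevisiae, measured by optical density at 600 nm. Assay medium contained 2% galactose at pH 6.0; NS1-free yeast of the same strain were the positive control.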
RE007 growth inh: qHTS Assay for Inhibitors of the HIV-1 protein Vpr; Potency, µM (highest dose often 92.2 µM), inactives show at the top dose activity change, negative = less growth; S. pombe RE007 Vpr strain, BacTiter-Glo ATP luminescence, 24 h; control for the full effect not named in the record; 0.21% of 360,000 active; active = well fitted falling curve with a large enough effect; inconclusive = small, poorly fitted or top-dose-only effect; inactive = no such curve, though single readings can be large or run the other way;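 also: % is scaled to controls: 0 for no effect and ±100 for the full control effect; nearly all actives have a fitted effect of over 50% in size; the assay follows cell death caused by Vpr and the record does not say whether a fall means rescue or toxicity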
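Fission yeast strain RE007, carrying one chromosomally integrated HIV-1 vpr copy, was seeded at OD 0.01 in PMG+AL medium with 23 nL pinned compound. After 24 h at 30 °C and 99% humidity, viability was read by BacTiter-Glo luminescence.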
Lassa entry inh: qHTS for Inhibitors of binding or entry into cells for Lassa Virus; Lassa virus pseudotype entry inhibition, cell reporter; control for the full effect not named in the record; AID 540256, 2011; 1.2% of 300,000 active; Potency, µM (series often up to 37.9 µM), for the others: top-dose activity change, negative = inhibition, hits mostly inhibitors; active means well fitted inhibition curve with a large enough effect; inconclusive means small, poorly fitted or top-dose-only effect, or effect the other way; inactive means flat fitted curve, though single readings scatter; tested in HEK293 cells; also: % is scaled to controls: 0 for no effect and ±100 for the full control effect; nearly all actives have a fitted effect of over 50% in size; luciferase read-out
SARS PLpro yeast: qHTS of Yeast-based Assay for SARS-CoV PLP | S. cerevisiae expressing SARS-CoV PLpro, growth rescue; control for the full effect not named in the record | Potency, µM (doses to about 32.9 µM), inactives show at the highest dose activity, positive = growth rescue | 0.19% of 330,000 active; active means well fitted rising curve with a large enough effect; inconclusive means small, poorly fitted or top-dose-only effect; inactive means no such curve, though single readings can be large or run the other way; also: 0% is about no effect; nearly all actives have a fitted effect of over 55% in size; growth read by luminescence after 48 h
* hit, by the source's call; [ ] = dose if it differs, or a comment. Unless noted, calls follow the shape of the dose curve; as a rule, active = well fitted curve in the direction sought with a large enough effect; inconclusive = small, poorly fitted or top-dose-only effect, or another doubt; inactive = no such curve, though single readings can be large; an effect the other way counts as inactive or inconclusive. Potency is read from the fitted curve at half-maximal effect.

`O=C(O)c1ccccc1NS(=O)(=O)c1ccc(N/N=C/c2ccc(O)c(O)c2)c([N+](=O)[O-])c1` gave 2A StopGo -9%, Marburg entry inh inconclusive, RE007 growth inh -22% and Lassa entry inh 2%.
COc1ccc(/C=C/C(=O)c2sc(-c3ccccc3)nc2C)cc1 was read as 2A StopGo 8%, Cruzain inh Det -1.5%, Cruzain noTriton -4%, Marburg entry inh -17%, NS1 function inh 2%, RE007 growth inh 0%, Lassa entry inh -23% and SARS PLpro yeast 2%.
For Cc1cccc(N2CCN(C(=O)c3ccc4c(c3)N(Cc3ccccc3)C(=O)c3ccccc3S4(=O)=O)CC2C)c1 (stereo not given) the results were 2A StopGo -14%, Cruzain inh Det -0.1%, Cruzain noTriton -26%, Marburg entry inh inconclusive and Lassa entry inh inconclusive.
For CCCc1cc(=O)n2[nH]c(NC(=O)c3ccc(C(C)(C)C)cc3)nc2n1 the results were 2A StopGo -18%, Cruzain inh Det -2.5%, Cruzain noTriton -14%, Marburg entry inh -4%[46.1 µM] and Lassa entry inh 19%[46.1 µM].
For COC(=O)c1ccccc1NS(=O)(=O)c1ccc(NC(C)=O)cc1 the results were 2A StopGo -6%, Marburg entry inh -3%[46.1 µM], NS1 function inh 3%, RE007 growth inh -1%, Lassa entry inh -5% and SARS PLpro yeast -1%.
For CCCCC(Sc1nc2cc3c(cc2c(=O)n1CCCC(=O)NCc1ccc(OC)cc1)OCO3)C(=O)OCC (stereo not given) the results were 2A StopGo 26%, Cruzain inh Det 4.1%, Cruzain noTriton inconclusive and Lassa entry inh -10%[46.1 µM].
`N#C/C(=C\c1cc2ccccc2nc1N1CCCCC1)C(N)=O` gave 2A StopGo -15%, Cruzain inh Det -7.3%, Cruzain noTriton 10%, Marburg entry inh 11%, NS1 function inh -16%, RE007 growth inh 2%, Lassa entry inh inconclusive and SARS PLpro yeast 17%.
`CN(Cc1cnccn1)C(=O)CC1C(=O)NCCN1Cc1c(F)cccc1Cl` (stereo not given) gave 2A StopGo -9%, NS1 function inh 6%, RE007 growth inh 9% and SARS PLpro yeast 1%.
O=c1[nH]c(N2CCN(Cc3ccc4c(c3)OCO4)CC2)nc2c1CCC2 was read as 2A StopGo -1%, Cruzain inh Det 1.9%, Cruzain noTriton -3%, Marburg entry inh -24%[46.1 µM], NS1 function inh -5%, RE007 growth inh 1%, Lassa entry inh -13% and SARS PLpro yeast 1%.
COC(=O)[C@@H]1CC(O)CN1C(=O)C12CC3CC(CC(C3)C1)C2 (stereo not given in full) was read as 2A StopGo 4%, NS1 function inh 0%, RE007 growth inh 7% and SARS PLpro yeast 0%.
Cc1nn(S(=O)(=O)c2ccc(C(C)(C)C)cc2)c(C)c1S(=O)(=O)N1CCCCCC1 was read as 2A StopGo 0%, Cruzain inh Det 0.0%, Cruzain noTriton inconclusive and Lassa entry inh 9%[46.1 µM].
Screening COC(=O)c1cc2nc(-c3ccccc3)cc(C)n2n1 returned 2A StopGo -5%, Cruzain inh Det -6.4%, Cruzain noTriton inconclusive, Marburg entry inh 6%[46.1 µM], NS1 function inh 0%, RE007 growth inh -8%, Lassa entry inh 0% and SARS PLpro yeast 9%.
Screening CCN(CC)S(=O)(=O)c1cc(NS(=O)(=O)c2cccc(C(=O)O)c2)ccc1C returned 2A StopGo 1%, Marburg entry inh 9%[46.1 µM], NS1 function inh 0%, RE007 growth inh 13%, Lassa entry inh 19%[46.1 µM] and SARS PLpro yeast -1%.
Cc1ccc(-n2c(O)c(C=Nc3ccccc3-c3n[nH]c(=S)[nH]c3=O)c3ccccc3c2=O)cc1C was read as 2A StopGo inconclusive, Marburg entry inh inconclusive, RE007 growth inh 8%, Lassa entry inh -10%[46.1 µM] and SARS PLpro yeast -1%.
For O=c1oc(-c2cccs2)nc2scc(-c3cccs3)c12 the results were 2A StopGo -14%, Cruzain inh Det -0.7%, Cruzain noTriton inconclusive, Marburg entry inh -6%, NS1 function inh 10%, RE007 growth inh -1%, Lassa entry inh 25% and SARS PLpro yeast -12%.
For C=CCn1c(N)nc2ccccc21 the results were 2A StopGo 0%, Cruzain inh Det -0.5%, Cruzain noTriton -8%, Marburg entry inh inconclusive, NS1 function inh -3%, RE007 growth inh 9%, Lassa entry inh -5% and SARS PLpro yeast -18%.
Screening CCCCC(=O)NC(c1ccc([N+](=O)[O-])cc1)c1c(O)ccc2ccccc12 (stereo not given) returned 2A StopGo 20µM*, Cruzain inh Det -6.0%, Cruzain noTriton 18%, Marburg entry inh inconclusive, NS1 function inh -5%, RE007 growth inh 4%, Lassa entry inh inconclusive and SARS PLpro yeast -67%.
CCN1CC(CNC(=O)c2ccc3nc(Cc4cccc(Cl)c4)oc3c2)CC1=O (stereo not given) was read as 2A StopGo -18%, NS1 function inh 3%, RE007 growth inh 2% and SARS PLpro yeast inconclusive.
CN(CCNC(=O)c1cccc(N2CCCC2=O)c1)Cc1ccccc1 was read as 2A StopGo -8%, Cruzain inh Det 2.0%, Cruzain noTriton 1%, Marburg entry inh inconclusive, NS1 function inh -2%, RE007 growth inh 18%, Lassa entry inh 8% and SARS PLpro yeast 5%.
`COc1cc(S(=O)(=O)NC2CCCCC2C)ccc1-n1cnnn1` (stereo not given) gave 2A StopGo 9%, Marburg entry inh inconclusive, NS1 function inh -1%, RE007 growth inh 22%, Lassa entry inh 12% and SARS PLpro yeast -2%.
O=c1[nH]ccc2c([N+](=O)[O-])cccc12 was read as 2A StopGo 11%, NS1 function inh -1%, RE007 growth inh -13% and SARS PLpro yeast 0%.
Cc1cc(C)c(NC(=O)Cn2c(=O)n(CCC(=O)N3CCc4ccccc4C3)c(=O)c3ccccc32)c(C)c1 was read as 2A StopGo -19%, Cruzain inh Det -0.5%, Cruzain noTriton -24%, Marburg entry inh inconclusive and Lassa entry inh inconclusive.
For CCCn1c2ccccc2c2cn[nH]c(=O)c21 the results were 2A StopGo -12%, Marburg entry inh inconclusive, NS1 function inh -38%, RE007 growth inh 10%, Lassa entry inh 1% and SARS PLpro yeast -2%.
`N=Cc1c(O)n(-c2ccc(C34CC5CC(CC(C5)C3)C4)cc2)c(=O)[nH]c1=O` gave 2A StopGo -19%, Cruzain inh Det -1.4%, Cruzain noTriton 2%, Marburg entry inh 0%, NS1 function inh 19%, RE007 growth inh 25%, Lassa entry inh -16% and SARS PLpro yeast 10%.
Screening COc1cc(N2CCCC2)c(OC)cc1/C=C(/C#N)c1cccc(Br)c1 returned 2A StopGo inconclusive, Cruzain inh Det -1.3%, Cruzain noTriton inconclusive, Marburg entry inh -19%, NS1 function inh 7%, RE007 growth inh 16%, Lassa entry inh inconclusive and SARS PLpro yeast 11%.
Screening Cc1cc(OCC(=O)N(Cc2cccs2)C2CCS(=O)(=O)C2)ccc1Cl (stereo not given) returned 2A StopGo inconclusive, NS1 function inh -6%, RE007 growth inh -4% and SARS PLpro yeast 4%.
`Cc1cc(C(=O)N/N=C2\CC(=O)CC(C)(C)C2)c(C)n1-c1ccc(F)cc1` gave 2A StopGo 0%, Cruzain inh Det -5.0%, Cruzain noTriton -8%, Marburg entry inh -14%, NS1 function inh 20%, RE007 growth inh 2%, Lassa entry inh 6% and SARS PLpro yeast 14%.
Screening CCOc1ccc(C2C=C(c3ccccc3)Nc3ncnn32)cc1 (stereo not given) returned Cruzain inh Det -8.5%, Cruzain noTriton 29%, Marburg entry inh -3%, NS1 function inh -106% and SARS PLpro yeast -1%.
For COCCCNC(=O)CCc1nc2cccnc2n1Cc1ccccc1 the results were 2A StopGo 0%, Cruzain inh Det 0.8%, Cruzain noTriton -2%, Marburg entry inh 16%, NS1 function inh 3%, RE007 growth inh 4%, Lassa entry inh 7% and SARS PLpro yeast 4%.
For Cc1ccn2c(=O)nc(SCC(=O)N3CCC(C)CC3)nc2c1 the results were 2A StopGo 5%, Marburg entry inh 3%, RE007 growth inh 2%, Lassa entry inh -13% and SARS PLpro yeast -1%.
For COc1ccc(/C=C/C(=O)C2(O)CCCCC2)cc1 the results were 2A StopGo 1%, Marburg entry inh inconclusive, NS1 function inh -7%, RE007 growth inh inconclusive, Lassa entry inh inconclusive and SARS PLpro yeast -1%.
O=C(Nc1ccc(Br)cc1)c1cccnc1N1CCCCC1 was read as 2A StopGo inconclusive, Cruzain inh Det 1.0%, Cruzain noTriton 3%, Marburg entry inh -3%, NS1 function inh -5%, RE007 growth inh -8%, Lassa entry inh -19% and SARS PLpro yeast -27%.
COc1ccccc1N(C)S(=O)(=O)c1ccc(Cl)c(C(=O)Nc2cccc(C)n2)c1 was read as 2A StopGo -15%, Marburg entry inh inconclusive, RE007 growth inh 13%, Lassa entry inh 7% and SARS PLpro yeast -7%.
COc1ccccc1/C=N/NC(=O)c1ccc2c(c1)OCO2 was read as 2A StopGo 1%, Marburg entry inh 4%, NS1 function inh -2%, RE007 growth inh -2%, Lassa entry inh 8% and SARS PLpro yeast 5%.
Screening Cc1nc2nc(C)n(CCN3CCOCC3)c(=O)c2c(-c2cccc([N+](=O)[O-])c2)c1C(=O)CCCCCCCCCCN1CCC(c2ccccc2)(c2ccccc2)CC1 returned 2A StopGo 25µM*, Marburg entry inh 0.5µM*, RE007 growth inh 2% and Lassa entry inh inconclusive.
`COCCNC(=O)CSc1nc2nc(C)cc(C)n2n1` gave 2A StopGo 6%, Cruzain inh Det 3.1%, Cruzain noTriton 10%, Marburg entry inh 14%, NS1 function inh -3%, RE007 growth inh 5%, Lassa entry inh -9% and SARS PLpro yeast 8%.
C=CCN1C(=O)c2ccc(C(=O)N(CC)CC(=O)Nc3c(F)cccc3F)cc2C1=O was read as 2A StopGo -4%, Marburg entry inh inconclusive, RE007 growth inh -9%, Lassa entry inh 3%[46.1 µM] and SARS PLpro yeast -2%.
